eIF4H inh = inhibitors of RNA binding by human eIF4H | Q15056 | eIF4H fluorescence polarization binding assay | inhibition, % at 35 µM | 0.94% of 290,000 active | AID 2012;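 active = 50% or more with normal probe brightness, or confirmed in later tests; inconclusive = above 50% with abnormal brightness, or retests that disagree; inactive = below 50% or failed in later tests; about a fifth of its hits are not listed in these tables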;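 note: calls also rest on retests at 20 µM and on dose response follow-up; 0% = protein and probe with vehicle and 100% = probe without protein; strong numbers were not always called active; many hits fall short of the cut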
MT1-MMP act inh = blocks activation of human MT1-MMP; GFP/RFP ratio change, % at 20 µM; AID 651647; P50281; HT1080 RFP-PRO-GFP cells, GFP/RFP ratio fluorescence, overnight; percent of plate control window, DMSO zero; 0.061% of 360,000 active;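 active = GFP/RFP ratio change of at least 30% with cell ATP level not reduced by more than half and red fluorescence within 50% of control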; note: strong numbers were not always called active
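Material: RFP-PRO-GFP reporter HT1080 cells. Dosing: single-point 20 µM compound, 1% DMSO. Controls: DMSO and RFP-L50D-GFP cell wells. Timing: cells overnight before dosing, compound overnight, 37 °C, 5% CO2. Measure: GFP/RFP fluorescence ratio.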
PABP FP inh = PABP-poly(A) binding inhibition | P11940 | PABP-poly(A) RNA binding, fluorescence polarization | inhibition, % at 35 µM | 1% of 290,000 active | AID 2014;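 active = 50% or more with normal probe brightness, or confirmed in later tests; inconclusive = above 50% with abnormal brightness, or retests that disagree; inactive = below 50% or failed in later tests; about a fifth of its hits are not listed in these tables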;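 note: calls also rest on retests at 20 µM and on dose response follow-up; controls were probe without protein and protein plus probe with vehicle; some compounds called inactive have numbers as strong as hits; many hits fall short of the cut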
Target sequence (P11940 whole entry, looked up): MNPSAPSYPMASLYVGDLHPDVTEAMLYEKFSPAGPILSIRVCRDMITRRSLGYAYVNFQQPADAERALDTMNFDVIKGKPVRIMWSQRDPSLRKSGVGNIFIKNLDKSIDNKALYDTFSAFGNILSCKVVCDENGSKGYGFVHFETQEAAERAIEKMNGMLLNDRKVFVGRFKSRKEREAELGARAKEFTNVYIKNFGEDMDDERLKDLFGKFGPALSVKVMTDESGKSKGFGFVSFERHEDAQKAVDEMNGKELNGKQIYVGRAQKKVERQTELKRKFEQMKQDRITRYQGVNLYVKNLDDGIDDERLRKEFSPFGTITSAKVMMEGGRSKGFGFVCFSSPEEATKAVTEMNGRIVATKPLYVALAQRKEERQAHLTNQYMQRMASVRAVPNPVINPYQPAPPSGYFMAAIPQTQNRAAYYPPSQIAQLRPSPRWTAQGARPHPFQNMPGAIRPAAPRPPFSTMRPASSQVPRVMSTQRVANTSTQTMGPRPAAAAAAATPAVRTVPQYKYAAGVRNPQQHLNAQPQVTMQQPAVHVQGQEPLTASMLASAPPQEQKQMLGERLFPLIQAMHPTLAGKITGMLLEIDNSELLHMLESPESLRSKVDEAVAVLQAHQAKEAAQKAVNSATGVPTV
Rce1 inhib = inhibitors of yeast Ras-converting enzyme; Q03530; yeast membranes, quenched prenylated peptide cleavage fluorescence; calls only; 0.27% of 290,000 active; AID 2563;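 active = fall in fluorescence gain of 50% or more versus controls, with final raw signal at or below 3038400; inconclusive = same 50% fall but final raw signal above 3038400; inactive = fall in fluorescence gain under 50%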;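 note: plate controls were neutral control wells for no effect and wells lacking membranes for full effect; tested at 10 µM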
Target sequence (Q03530 whole entry, looked up): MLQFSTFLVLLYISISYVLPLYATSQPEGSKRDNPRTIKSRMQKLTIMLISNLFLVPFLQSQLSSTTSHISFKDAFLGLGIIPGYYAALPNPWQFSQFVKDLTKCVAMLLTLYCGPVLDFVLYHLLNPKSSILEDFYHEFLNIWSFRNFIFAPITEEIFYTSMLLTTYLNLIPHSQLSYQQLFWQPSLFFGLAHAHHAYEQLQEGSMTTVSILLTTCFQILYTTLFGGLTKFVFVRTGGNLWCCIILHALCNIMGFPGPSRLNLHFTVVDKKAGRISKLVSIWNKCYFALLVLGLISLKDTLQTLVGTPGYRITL
Yeast UUG start = modulators of start codon recognition fidelity in yeast; S. cerevisiae UUG-firefly luciferase reporter, luminescence/redox ratio; activity score, % at 18.7 µM; 0.13% of 350,000 active; AID 602363;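 active = replicate mean at a twofold rise or more, about +100% in these data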;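 note: firefly luciferase made from a UUG start codon reports start codon fidelity; reporter light over untreated wells divided by growth signal over untreated wells; some hits fall short of that in this replicate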
HIV Env fusion = HIV envelope-mediated fusion inhibition | HeLa-JRFL Env/CEM21 cell fusion, luciferase | inhibition, % at 12.3 µM | 1.1% of 360,000 active | AID 651610;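 active = mean replicate inhibition score of at least 50 and every replicate individually at or above 50; inconclusive = only one of the two criteria met; inactive = mean below 50 and not all replicates reaching 50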;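 note: 0% = plate neutral controls and 100% = maraviroc near 300 nM; one replicate is shown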
CSC inhib = cancer stem cell inhibition. inhibition, % at 7.5 µM. cancer stem cell-like cells viability, luminescence. 1.1% of 300,000 active;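 active = mean at 75% or more and at least half the replicates too; inconclusive = mean and replicates disagree; tested in HMLE shEcad cells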;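 note: 0% = median of negative and 100% = median of positive control wells; the first replicate is given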
eIF4H inh retest = recorded beside eIF4H inh, whose call it bears; inhibition, %; compound at 20 µM; confirmation average;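 mean of two retest wells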
PABP FP inh retest = second read-out of PABP FP inh, no call of its own (marks repeat the call); inhibition, %; compound at 20 µM; confirmation repeats;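 mean of two retest wells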
MT1-MMP act inh RFP = also measured in MT1-MMP act inh; calls as there; RFP signal change, %; measured here: RFP expression control read;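 0 = vehicle wells; hits needed this value within 50% of zero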
Numbers without * were called inactive; i = inactive; ? = inconclusive; · = not tested or not shown.

SMILES	eIF4H inh	MT1-MMP act inh	MT1-MMP act inh RFP	PABP FP inh	Rce1 inhib	Yeast UUG start	HIV Env fusion	CSC inhib	others
Cc1ccc2c(c1)C(=O)C(=O)N2CCOc1ccccc1	-4.2	-1.0	8.0	-12.7	i	-19.3	-17.7	52.9
COc1cccc(-n2c(C)nc3c(cnn3-c3ccc(Cl)cc3)c2=O)c1	4.7	0.1	-22.9	4.9	i	-4.6	?	-3.4
Cc1cc(=O)n2nc(N3CCCC(C(=O)NC(C)c4ccccc4)C3)sc2n1 (stereo not given)	-1.7	-0.8	0.7	-0.3	i	-12.2	9.2	-1.1
CCCCNC(=O)CSc1nnc(-c2c[nH]c3ccccc23)n1CC1CCCO1 (stereo not given)	-5.7	0.4	-1.0	-0.3	i	·	·	-9.1
COc1ccccc1C(=O)COC(=O)c1cc(S(=O)(=O)N2CCCCC2)ccc1N1CCOCC1	·	-3.1	-5.8	·	i	·	·	-7.0
COc1cc(SC)ccc1C(=O)Nc1cc(C)c(OCC(=O)N2CCOCC2)c(C)c1	5.0	-0.4	-3.8	4.6	i	-1.8	-8.9	0.1
CC(C)OCCCn1c(=N)c(C(N)=S)cc2c(=O)n3ccccc3nc21	?	-19.7	0.6	?	i	-1.3	-93.0	2.8
COc1ccc(S(=O)(=O)N2CCCC2C(=O)Nc2nccs2)cc1 (stereo not given)	14.0	-1.7	-0.5	9.8	·	-3.2	·	0.5
COc1ccc(C(=O)OCC(=O)c2ccc(CNC(C)=O)s2)cc1	·	7.2	2.0	·	·	-13.6	·	6.0
COc1ccc(C2=NN(C(=O)c3ccco3)C(c3cccs3)C2)cc1OC (stereo not given)	·	5.8	2.4	·	·	-2.4	3.9	·
NC(=O)CSc1nnnn1-c1cccc(Cl)c1	-0.8	1.5	7.1	7.4	i	·	-11.1	-9.2
COc1ccccc1N1CCN(C(=O)CN(C)S(=O)(=O)c2ccc(C)cc2)CC1	·	-0.5	-4.6	·	·	9.3	-13.2	·

5 compounds drawn at random from those above:
SMILES	eIF4H inh	MT1-MMP act inh	MT1-MMP act inh RFP	PABP FP inh	Rce1 inhib	Yeast UUG start	HIV Env fusion	CSC inhib	others
COc1cc(SC)ccc1C(=O)Nc1cc(C)c(OCC(=O)N2CCOCC2)c(C)c1	5.0	-0.4	-3.8	4.6	i	-1.8	-8.9	0.1
COc1cccc(-n2c(C)nc3c(cnn3-c3ccc(Cl)cc3)c2=O)c1	4.7	0.1	-22.9	4.9	i	-4.6	?	-3.4
NC(=O)CSc1nnnn1-c1cccc(Cl)c1	-0.8	1.5	7.1	7.4	i	·	-11.1	-9.2
CC(C)OCCCn1c(=N)c(C(N)=S)cc2c(=O)n3ccccc3nc21	?	-19.7	0.6	?	i	-1.3	-93.0	2.8
COc1ccccc1C(=O)COC(=O)c1cc(S(=O)(=O)N2CCCCC2)ccc1N1CCOCC1	·	-3.1	-5.8	·	i	·	·	-7.0

Remaining list, next part.
SMILES	eIF4H inh	MT1-MMP act inh	MT1-MMP act inh RFP	PABP FP inh	Rce1 inhib	Yeast UUG start	HIV Env fusion	CSC inhib	others
O=C(COC(=O)CN1C(=O)NC2(CCCC2)C1=O)Nc1ccc(C(F)(F)F)cc1[N+](=O)[O-]	·	-0.8	4.5	·	i	-19.0	-8.4	-1.3
Cn1c(=O)c2cc(NC(=O)CCc3ccccc3)ccc2n1Cc1cccc(C(F)(F)F)c1	·	-7.1	-18.7	·	·	5.9	-2.5	·
CSc1nc(Oc2ccc(F)cc2)c2ccccc2n1	-4.1	5.8	5.2	3.2	i	-14.9	·	15.6
Cc1cccc(N2CCN(C(=O)c3nn(C)c4c3CS(=O)(=O)c3ccccc3-4)CC2C)c1 (stereo not given)	34.3	6.5	1.1	-2.4	i	·	5.2	-9.8
CCOc1ccc(C(=O)NCC(c2cccs2)N(C)C)cc1OCC (stereo not given)	86.6*	-2.7	2.2	-10.0	i	-3.5	9.1	-19.4	eIF4H inh retest=73.8*;PABP FP inh retest=11.0
COc1cc(C2C3=C(CCCC3=O)Nc3c2c(C)nn3-c2cccc(C)c2)cc(OC)c1O (stereo not given)	13.9	6.3	4.4	14.0	i	-1.5	-7.3	14.1
CC1(c2ccc(Cl)cc2)NC(=O)N(CC(=O)NCc2ccc(F)cc2)C1=O (stereo not given)	-0.5	1.1	1.8	5.4	·	-18.6	0.5	2.6
CN1C(=O)/C(=C2\SC(N3CCCCCC3)=NC2=O)c2ccccc21	-3.9	10.3	-3.8	-1.1	i	-14.3	-88.1	7.0
CC1CCCCN1C(=O)CSc1nc(N)nc(N)n1 (stereo not given)	·	1.0	6.1	·	i	-17.6	·	-8.8
CCOc1ccc(N(C(C)C(=O)N2CCCCCC2)S(C)(=O)=O)cc1 (stereo not given)	-1.5	-0.2	-3.8	3.6	i	15.3	4.3	-5.8
CC(C)(C)C(=O)NC(C(N)=O)=C(Cl)Cl	-1.8	-3.4	-3.3	7.3	i	-24.5	-57.1	-12.4
COc1ccc(Nc2nc(NC(C)C)nc3ccsc23)cc1OC	·	1.0	-7.7	·	·	-3.9	36.7	·
O=C(NC1CCCC1)c1cccc(S(=O)(=O)N2CCCC2)c1	·	7.3	3.3	·	·	-16.5	-4.3	·
COc1ccc(S(=O)(=O)N(C)[C@H]2C[C@H]3c4cc(N5CCN(C)CC5)ccc4CCN3C(=O)[C@H]2[C@H](C)O)cc1	·	-4.1	-0.6	·	·	0.9	-76.7	·
OC(COCc1ccccc1)COCc1ccccc1	·	-4.3	2.9	·	·	-8.6	-6.6	·
CN(C(=O)c1ccc(NC(=O)Cc2ccc(NC(=O)C3CCCN(S(=O)(=O)c4cccc([N+](=O)[O-])c4)C3)cc2)cc1)C1CCCC1 (stereo not given)	·	2.8	-10.5	·	·	-6.5	-17.3	·
COC(=O)Cn1c(C)nc2ccccc21	-0.8	-0.5	3.3	-2.8	i	-13.8	12.5	-17.1
O=C(NCc1ccccc1)c1ccc(S(=O)(=O)N2CCCC2)cc1	-6.3	9.5	-0.6	7.6	·	-10.7	·	-2.6
Cc1cc(=O)oc2c(N)c(O)ccc12	-7.6	-0.9	2.7	-9.2	i	-27.1	18.3	-1.5
c1cncc(-c2nc3ccccc3s2)c1	-14.8	1.1	5.7	-4.4	i	-2.8	-32.6	-0.2
CC(C)c1ccc(NC(=O)C2CCCN2S(=O)(=O)c2ccccc2F)cc1 (stereo not given)	·	6.0	-6.5	·	·	-4.1	-4.9	40.3
COc1ccccc1NS(=O)(=O)c1ccc2oc(=S)[nH]c2c1	-1.0	-2.0	0.6	-7.5	i	·	2.1	-6.0
Cc1ccc(S(=O)(=O)N2CCN(C(=O)CC(C)n3cncn3)CC2)cc1 (stereo not given)	-1.2	1.1	4.3	-1.4	i	-17.3	5.2	-9.6
CN(C)CCCCOc1ccccc1-c1ccccc1	-7.0	-8.3	-5.6	1.5	i	-13.8	-25.1	-26.5

Next part; it opens with the 2 that closed the last part.
SMILES	eIF4H inh	MT1-MMP act inh	MT1-MMP act inh RFP	PABP FP inh	Rce1 inhib	Yeast UUG start	HIV Env fusion	CSC inhib	others
Cc1ccc(S(=O)(=O)N2CCN(C(=O)CC(C)n3cncn3)CC2)cc1 (stereo not given)	-1.2	1.1	4.3	-1.4	i	-17.3	5.2	-9.6
CN(C)CCCCOc1ccccc1-c1ccccc1	-7.0	-8.3	-5.6	1.5	i	-13.8	-25.1	-26.5
COc1ccc(C2N(Cc3ccccc3)CC(=O)N2/N=C(\C)c2ccccc2)cc1 (stereo not given)	-4.0	1.0	5.6	0.4	i	·	-11.9	-3.5
O=C(Nc1ccc([N+](=O)[O-])cc1)c1ccccc1	-0.9	0.5	-3.2	3.5	·	-9.9	-14.8	9.8
Cc1ccc(C(=O)COC(=O)CN2C(=O)C3C4CCC(C4)C3C2=O)cc1C (stereo not given)	-0.5	-1.5	5.2	-2.5	i	13.7	-1.3	·
S=c1[nH]nc(-c2cccnc2)n1C1CCCCC1	-11.0	1.3	1.1	11.0	i	·	12.4	-9.2
O=C(CC(C(=O)O)c1cccc(Cl)c1)c1ccccc1 (stereo not given)	-7.3	0.1	1.4	2.5	i	-19.2	-5.4	-10.7
COc1ccc(CN2CCN(CCCc3ccccc3)CC2)c(OC)c1	6.4	·	·	10.6	i	·	12.1	42.3
COc1ccc(OC)c(C(C)NC(C)=O)c1 (stereo not given)	-3.4	1.7	2.3	-6.4	i	-14.9	4.5	4.2
CCN(CC)c1ccc(C(=O)NNC(=O)CCc2nc3ccccc3c(=O)[nH]2)cc1	3.3	-3.2	4.2	-4.9	i	-10.1	·	·
CCCC(c1nnnn1C(C)(C)CC)N(CCCO)Cc1cc2cc(C)cc(C)c2[nH]c1=O (stereo not given)	-1.0	-5.7	1.9	-7.6	i	-6.1	·	4.3
COc1ccc(-c2nc3ccccn3c2/N=C/c2ccc(OC)c(OC)c2)cc1O	-7.3	-0.3	2.0	4.7	i	-19.6	3.2	12.1
COC(=O)C1CCCCN1C(=O)c1cc(COc2cccc3cnccc23)on1 (stereo not given)	5.2	3.7	-28.2	10.7	i	-13.0	63.9*	3.4
O=C(CS(=O)c1ccc(C(F)(F)F)cc1[N+](=O)[O-])Oc1ccccc1 (stereo not given)	-7.5	-13.6	-10.7	8.4	i	-20.6	-113.7	76.8*
Cn1c(CN2CCOCC2)nnc1SCC(=O)Nc1cc(Cl)ccc1Cl	-15.6	-0.6	1.2	-10.1	·	-19.0	-4.7	6.1
CCOC(=O)c1cnn(C)c1NC(=O)c1ccc([N+](=O)[O-])cc1	3.2	-2.3	-0.6	4.5	i	·	20.2	-20.0
N#Cc1nc(-c2ccc(F)cc2)oc1NCc1ccco1	9.5	4.8	3.9	1.9	i	·	-13.6	-3.5
CCCc1cc(C(=O)N/N=C/c2ccc(CC)s2)c2ccccc2n1	-3.7	-3.5	-15.3	2.3	i	412.9*	-70.6	·
Cc1nn(CCCC(=O)N2CCN(c3ccc(F)cc3)CC2)c(C)c1[N+](=O)[O-]	-15.4	2.8	-3.0	-3.6	i	2.5	8.8	2.6
Cc1ccccc1C(=O)NC(=S)Nc1ccccc1C(=O)O	-1.8	-3.3	-3.3	1.1	i	-26.9	-7.6	9.0
Cc1cccc(NC(=S)N2CCN(c3ccccn3)CC2)c1	-5.2	1.8	-3.8	0.7	i	-4.5	-13.8	-7.8
Cc1ccc(-c2nc3ccccc3c(C(=O)NCc3cccs3)c2C)cc1	-9.1	0.7	-3.0	15.7	i	-2.7	·	-16.5
COCc1c(C(=O)NCCOc2ccc(Cl)cc2)oc2ccccc12	·	-5.2	-1.6	·	·	-5.4	·	1.3
COc1ccc2nc(C)cc(Nc3ccc(C(=O)O)cc3)c2c1	-1.0	0.9	3.3	7.2	i	-1.4	·	-3.2
CSc1cccc(NS(=O)(=O)c2ccc3c(c2)NC(=O)C(C)C(=O)N3)c1 (stereo not given)	-5.7	-0.5	-3.5	8.0	i	-2.1	-22.9	-13.3
Cc1ccc(S(=O)(=O)N2[C@@H](c3ccc4c(c3)OCO4)C(C(=O)O)=C[C@H]2CC2CCCC2)cc1	·	4.8	1.9	·	·	2.0	-15.5	·
O=C(COC(=O)CN1C(=O)c2ccccc2C1=O)Nc1ccccc1	·	-2.1	0.0	·	·	-4.2	-2.4	-12.3

Assay outcomes as filed in PubChem.
